eIF4H FP inh = inhibitors of RNA binding by human eIF4H. Q15056. eIF4H fluorescence polarization binding assay. inhibition, % at 35 µM. 290,000 compounds, 0.94% hits;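 active means 50% or more with normal probe brightness, or confirmed in later tests; inconclusive means above 50% with abnormal brightness, or retests that disagree; inactive means below 50% or failed in later tests; about a fifth of its hits are not listed in these tables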;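 further: calls also rest on retests at 20 µM and on dose response follow-up; 0% = protein and probe with vehicle and 100% = probe without protein; strong numbers were not always called active; many hits fall short of the cut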
CSC inhib = cancer stem cell inhibition. 300,000 compounds, 1.1% hits. inhibition, % at 7.5 µM. cancer stem cell-like cells viability, luminescence;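 active means mean at 75% or more and at least half the replicates too; inconclusive means mean and replicates disagree; tested in HMLE shEcad cells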;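 further: 0% = median of negative and 100% = median of positive control wells; the first replicate is given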
MT1-MMP act inh = MT1-MMP (human) activation inhibition | GFP/RFP ratio change, % at 20 µM | HT1080 RFP-PRO-GFP cells, GFP/RFP ratio fluorescence, overnight; percent of plate control window, DMSO zero | P50281 | 360,000 compounds, 0.061% hits;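 active means GFP/RFP ratio change of at least 30% with cell ATP level not reduced by more than half and red fluorescence within 50% of control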; further: strong numbers were not always called active
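Assay system: HT1080 RFP-PRO-GFP cells | Dosing: 20 µM single dose, 1% DMSO | Incubation: Cells overnight before dosing, compound overnight, 37 °C, 5% CO2 | Evaluation: GFP/RFP fluorescence ratio | Control set: DMSO-only wells and HT1080 RFP-L50D-GFP cell wells as references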
Rce1 inh = inhibitors of yeast Ras-converting enzyme; yeast membranes, quenched prenylated peptide cleavage fluorescence; calls only; 290,000 compounds, 0.27% hits; AID 2563;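 active means fall in fluorescence gain of 50% or more versus controls, with final raw signal at or below 3038400; inconclusive means same 50% fall but final raw signal above 3038400; inactive means fall in fluorescence gain under 50%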;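 further: plate controls were neutral control wells for no effect and wells lacking membranes for full effect; tested at 10 µM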
Target sequence (Q03530 whole entry, looked up): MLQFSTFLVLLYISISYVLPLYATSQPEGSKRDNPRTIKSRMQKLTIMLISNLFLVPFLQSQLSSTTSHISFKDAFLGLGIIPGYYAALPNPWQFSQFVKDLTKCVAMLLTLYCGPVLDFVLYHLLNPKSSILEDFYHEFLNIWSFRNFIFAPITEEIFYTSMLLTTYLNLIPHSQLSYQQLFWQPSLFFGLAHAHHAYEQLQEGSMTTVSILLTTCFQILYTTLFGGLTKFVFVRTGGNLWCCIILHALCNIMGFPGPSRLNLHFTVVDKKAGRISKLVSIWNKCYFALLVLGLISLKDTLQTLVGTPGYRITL
Yeast UUG start = modulators of start codon recognition fidelity in yeast | S. cerevisiae UUG-firefly luciferase reporter, luminescence/redox ratio | activity score, % at 18.7 µM | 350,000 compounds, 0.13% hits;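 active means replicate mean at a twofold rise or more, about +100% in these data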;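 further: firefly luciferase made from a UUG start codon reports start codon fidelity; reporter light over untreated wells divided by growth signal over untreated wells; some hits fall short of that in this replicate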
PABP polyA inh = PABP-poly(A) binding inhibition; inhibition, % at 35 µM; P11940; 290,000 compounds, 1% hits; PABP-poly(A) RNA binding, fluorescence polarization;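 active means 50% or more with normal probe brightness, or confirmed in later tests; inconclusive means above 50% with abnormal brightness, or retests that disagree; inactive means below 50% or failed in later tests; about a fifth of its hits are not listed in these tables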;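 further: calls also rest on retests at 20 µM and on dose response follow-up; controls were probe without protein and protein plus probe with vehicle; some compounds called inactive have numbers as strong as hits; many hits fall short of the cut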
Target sequence (P11940 whole entry, looked up): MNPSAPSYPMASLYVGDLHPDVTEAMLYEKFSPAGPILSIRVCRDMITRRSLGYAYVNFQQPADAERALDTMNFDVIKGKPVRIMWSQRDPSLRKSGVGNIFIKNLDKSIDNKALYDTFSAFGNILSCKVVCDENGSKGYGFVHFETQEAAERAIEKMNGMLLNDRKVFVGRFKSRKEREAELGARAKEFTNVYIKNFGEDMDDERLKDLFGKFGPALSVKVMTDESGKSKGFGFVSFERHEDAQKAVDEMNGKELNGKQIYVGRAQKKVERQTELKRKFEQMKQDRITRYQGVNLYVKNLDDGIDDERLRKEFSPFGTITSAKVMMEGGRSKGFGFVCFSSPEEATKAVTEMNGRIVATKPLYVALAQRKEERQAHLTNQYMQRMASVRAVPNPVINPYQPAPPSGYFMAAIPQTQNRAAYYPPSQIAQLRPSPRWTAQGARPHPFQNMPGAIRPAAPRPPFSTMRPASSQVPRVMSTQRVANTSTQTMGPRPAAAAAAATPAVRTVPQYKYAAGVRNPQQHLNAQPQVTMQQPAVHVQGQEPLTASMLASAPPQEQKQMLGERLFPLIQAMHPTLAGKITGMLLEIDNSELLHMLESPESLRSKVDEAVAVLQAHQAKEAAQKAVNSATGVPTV
Env fusion inh = inhibitors of HIV Env-mediated cell fusion. HeLa-JRFL Env/CEM21 cell fusion, luciferase. inhibition, % at 12.3 µM. 360,000 compounds, 1.1% hits. AID 651610;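 active means mean replicate inhibition score of at least 50 and every replicate individually at or above 50; inconclusive means only one of the two criteria met; inactive means mean below 50 and not all replicates reaching 50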;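 further: 0% = plate neutral controls and 100% = maraviroc near 300 nM; one replicate is shown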
MT1-MMP act inh RFP = further read-out of MT1-MMP act inh, marked with its call; RFP signal change, %; measured here: RFP expression control read;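 0 = vehicle wells; hits needed this value within 50% of zero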
The depositor's hits bear a star; i = inactive; ? = inconclusive; · = not tested or not shown. Some of the compounds tested; count on the stated rates, not on these rows.

SMILES	eIF4H FP inh	CSC inhib	MT1-MMP act inh	MT1-MMP act inh RFP	Rce1 inh	Yeast UUG start	PABP polyA inh	Env fusion inh
CCOC(=O)c1c(NC(=O)CSc2nc3cc(Cl)ccc3c(=O)n2Cc2ccco2)sc(C(=O)N(C)C)c1C	-11.5	52.3	-33.2	-15.7	i	·	-0.4	20.3
O=C(NC(=S)N(CCO)Cc1ccccc1)c1ccc(F)cc1Cl	1.9	-14.8	0.2	1.0	i	-20.4	-15.2	-0.5
CC(=O)N1CCN(c2nnc(-c3ccccc3)c3ccccc23)CC1	-2.4	-6.7	1.7	1.5	i	-12.3	-0.5	13.3
O=C(CCc1ccc(S(=O)(=O)N2CCOCC2)cc1)Nc1nc(COc2ccccc2)cs1	-2.6	24.6	-1.8	-19.1	i	·	-1.3	79.7*
Cc1ccc(C)c(OCC(=O)OCc2csc(CC(=O)Nc3ccccc3C)n2)c1	·	·	1.1	3.8	·	-12.6	·	10.2
N#CCCN(C(=O)Nc1ccccc1)c1ccccc1	3.4	-2.3	1.4	-0.4	i	-1.9	8.1	·
Cc1cc(CSc2nc(C)cc(=O)[nH]2)c2ncccc2c1	-0.2	-8.5	1.1	-0.8	i	·	17.9	-6.5
Cc1ccc2c(c1)N(C(=O)CCC(=O)N1CCN(c3ccccn3)CC1)CCO2	-1.5	-3.4	0.9	1.3	i	-15.3	3.0	·
Cc1c(C)c2c(c(C)c1O)CC[C@@](C)(CCC[C@H](C)CCC[C@H](C)CCCC(C)C)O2	·	-8.7	-0.8	-2.2	i	12.6	·	·
COC(=O)n1c(=S)oc2cc(Cl)ccc21	-9.0	2.6	·	·	i	·	3.4	·

Reformatted: four of the compounds above
smiles | eIF4H FP inh | CSC inhib | MT1-MMP act inh | MT1-MMP act inh RFP | Rce1 inh | Yeast UUG start | PABP polyA inh | Env fusion inh
CCOC(=O)c1c(NC(=O)CSc2nc3cc(Cl)ccc3c(=O)n2Cc2ccco2)sc(C(=O)N(C)C)c1C | -11.5 | 52.3 | -33.2 | -15.7 | i | · | -0.4 | 20.3
O=C(NC(=S)N(CCO)Cc1ccccc1)c1ccc(F)cc1Cl | 1.9 | -14.8 | 0.2 | 1.0 | i | -20.4 | -15.2 | -0.5
CC(=O)N1CCN(c2nnc(-c3ccccc3)c3ccccc23)CC1 | -2.4 | -6.7 | 1.7 | 1.5 | i | -12.3 | -0.5 | 13.3
O=C(CCc1ccc(S(=O)(=O)N2CCOCC2)cc1)Nc1nc(COc2ccccc2)cs1 | -2.6 | 24.6 | -1.8 | -19.1 | i | · | -1.3 | 79.7*

More results follow:
SMILES	eIF4H FP inh	CSC inhib	MT1-MMP act inh	MT1-MMP act inh RFP	Rce1 inh	Yeast UUG start	PABP polyA inh	Env fusion inh
CCC(C)c1ccc(S(=O)(=O)N2CCN3CCCC3C2)cc1 (configuration not stated)	7.7	-9.5	5.6	7.4	i	-7.9	-9.4	-29.1
Cc1cc(-c2ccccc2)nc(N/N=C/c2ccccc2F)n1	-0.1	22.2	-0.6	-10.3	i	-19.4	7.9	-60.9
CCOC(=O)c1cnc2c(c(C)nn2CC)c1Cl	5.4	-1.0	2.1	0.0	i	3.3	-1.5	-10.1
O=C(COC(=O)c1cccc(F)c1)Nc1ccc(Cl)cn1	·	11.5	0.1	-0.7	·	-18.0	·	·
Cc1c(C(C)C)c(=O)n(-c2ccc(S(=O)(=O)NC3CC3)cc2)n1C	-17.5	-9.2	3.3	-3.8	i	3.3	-9.3	-5.8
COC(=O)c1c(C(=O)OC)c(-c2cccc(C)c2)n2c1CS(=O)(=O)C2	-7.5	·	1.0	3.7	i	-9.7	1.5	·
Cc1cc(C)c(C)c(S(=O)(=O)N2CCN(c3ccccn3)CC2)c1C	-0.9	-10.8	-4.5	2.1	i	12.1	-2.4	9.1
CCOc1ccc(NC(=O)C2CC(C)=C(C)CC2C(=O)O)cc1 (configuration not stated)	3.4	0.5	1.8	1.5	i	·	0.3	·
S=C(Nc1cccc(Cl)c1)NC1CCCCC1	3.5	-18.2	3.2	2.2	i	-29.3	-2.6	·
COc1cccc(NS(=O)(=O)c2ccc(C)c(C(=O)N3CCCCC3)c2)c1	-1.4	-1.5	0.5	-3.1	i	-11.1	-11.9	-6.1
CC(C)c1ccc(NC(=O)C2CCC(CNC(=O)[C@@H]3Cc4ccccc4CN3)CC2)cc1 (some centres not stated)	-5.3	-2.3	-1.8	-7.3	i	-7.5	-1.5	9.6
CC(C)(C)c1ccc(OCC(=O)Nc2ccncc2)cc1	-2.0	-4.1	0.7	0.0	i	8.0	-8.9	-4.3
Cc1c(Cl)cccc1NC(=O)C1CC2CCC1C2 (configuration not stated)	·	-2.2	-2.5	-3.9	i	-4.8	·	4.4
O=C(C1CCCCC1)N1C[C@@H](n2cc(C3CC3)nn2)[C@H](O)C[C@@H]1c1ccc(Cl)cc1	·	·	1.3	-0.3	·	5.1	·	-13.5
CCC(C)NC(=O)c1ccc(NC(=O)CC2SC(N3CCCC3)=NC2=O)cc1 (configuration not stated)	·	-1.0	-0.2	4.7	·	-12.1	·	·
CCOC(=O)c1ccc(CSC(=N)N)o1	-8.8	0.1	4.8	0.5	i	0.9	4.9	-18.9
CCCSc1nc(NCc2ccco2)c2c3c(sc2n1)COC(C)(C)C3	23.9	64.6	-3.3	-3.2	i	9.1	15.4	?
Cc1cc(C)cc(OCC(=O)NN2Cc3ccccc3C2=N)c1	1.0	-4.0	4.0	4.4	i	29.1	0.1	·
CC1CCC(NC(=O)CC2Oc3ccccc3NC2=O)CC1 (configuration not stated)	-3.3	-12.0	-3.1	-0.9	i	17.5	5.9	-5.1
CSc1nc(C)c(CCO)c(=O)[nH]1	-9.0	-1.2	0.5	3.2	i	·	-4.7	19.9
Cc1cc(C2=NNC(=Nc3ccc(S(=O)(=O)N4CCOCC4)cc3)SC2)c(C)n1CC1CCCO1 (configuration not stated)	-5.8	-20.9	2.2	6.3	i	·	-3.9	1.2
CCOc1ccc(NC(=O)N(CCN2CCOCC2)Cc2ccc3c(c2)CCCN3CC)cc1	0.8	-1.2	11.2	3.3	i	3.6	1.3	·
CC(C)C(C)(C#N)NC(=O)CSc1ncnc2sc(-c3ccccc3)cc12 (configuration not stated)	-8.6	18.1	1.2	-9.5	i	4.0	-11.1	·
Cc1ccc(NC2=NC(c3ccccc3)n3c(nc(C)cc3=O)N2)cc1 (configuration not stated)	1.2	-7.3	-1.3	5.5	i	-7.3	1.9	-103.1
O=C(NCCN1CCOCC1)c1cccc2c1C(=O)c1ccc(N3CCCC3)cc1S2(=O)=O	·	·	-69.6	5.4	·	1.5	·	1.9
CN(CC(=O)NCCN1CCOCC1)S(=O)(=O)c1ccc(Cl)cc1	·	-9.4	-2.1	4.9	·	-4.8	·	0.5
COc1ccc(-c2csc(C(NC(C)=O)c3cccc(F)c3)n2)cc1 (configuration not stated)	·	·	-0.7	-3.2	·	-10.2	·	-50.3
CCCCCCSc1ccc([C@H]2N[C@@](C)(C(=O)OC)[C@H]3C(=O)N(C)C(=O)[C@@H]23)cc1	·	41.2	-4.0	-14.0	i	2.4	·	-4.3
Cc1ccc(/C=C/c2onc(C)c2S(=O)(=O)N2CCC(C(=O)N3CCN(C)CC3)CC2)cc1	24.2	24.9	0.9	-0.5	i	-6.5	-10.7	-14.0
ClCc1csc(-c2ccccc2Cl)n1	8.7	-3.9	3.4	1.4	i	-16.4	?	5.8
O=S(=O)(Nc1cccc(S(=O)(=O)N2CCCC2)c1)c1cccc(Br)c1	·	·	-1.3	2.8	·	-14.9	·	2.5
COc1ccc(-c2csc(NC(=O)C3CC(=O)N(Cc4ccccc4)C3)n2)cc1OC (configuration not stated)	0.4	·	0.8	-9.0	i	21.6	21.5	23.9
CCOC(=O)c1ccc(S(=O)(=O)N2CCC(C(=O)O)CC2)cc1	-2.4	-2.4	-0.9	-0.9	i	-11.3	10.7	-89.3
c1ccc(CCNc2ncnc3nc[nH]c23)cc1	8.5	-5.1	-2.4	-10.0	i	-15.7	-4.5	·
COc1ccccc1Nc1ccc(NS(=O)(=O)c2ccc(C(C)=O)cc2)cc1	-10.2	-3.4	4.1	1.4	i	-24.6	-2.3	0.5
Cc1ccc(N(CC(=O)NCc2ccc3c(c2)OCO3)S(C)(=O)=O)cc1	2.7	-11.1	1.3	6.2	i	-9.0	-1.5	-31.1
Cn1nc(C(=O)N2CCN(S(=O)(=O)/C=C/c3ccccc3)CC2)c2ccccc2c1=O	-9.6	-8.5	2.1	3.1	i	·	-11.5	3.2
Cc1ccc(C(=O)Nc2cccc(C(=O)NCc3ccccc3)c2)cc1	6.6	67.3	-3.9	-4.8	i	-4.6	1.7	6.2
COCCn1c(SCC(=O)Nc2nc(C)c(Cl)cc2Cl)nc2ccccc21	1.6	12.3	-4.3	-4.7	i	-18.5	-4.5	1.0
COc1ccnc(Oc2cc(Cl)cc(Cl)c2)c1C#N	-1.9	-14.4	2.7	3.2	·	-18.6	5.4	-2.8

Three compounds already listed, sorted by SMILES length, descending:
SMILES	eIF4H FP inh	CSC inhib	MT1-MMP act inh	MT1-MMP act inh RFP	Rce1 inh	Yeast UUG start	PABP polyA inh	Env fusion inh
O=S(=O)(Nc1cccc(S(=O)(=O)N2CCCC2)c1)c1cccc(Br)c1	·	·	-1.3	2.8	·	-14.9	·	2.5
COc1ccnc(Oc2cc(Cl)cc(Cl)c2)c1C#N	-1.9	-14.4	2.7	3.2	·	-18.6	5.4	-2.8
c1ccc(CCNc2ncnc3nc[nH]c23)cc1	8.5	-5.1	-2.4	-10.0	i	-15.7	-4.5	·

Remaining list, next part
SMILES	eIF4H FP inh	CSC inhib	MT1-MMP act inh	MT1-MMP act inh RFP	Rce1 inh	Yeast UUG start	PABP polyA inh	Env fusion inh
NS(=O)(=O)c1cc(C(=O)O)c(NCc2ccco2)cc1Cl	·	-6.9	-1.1	-2.7	i	-1.9	·	11.1
Nc1[nH]n(-c2ccccc2)c(=O)c1N=Nc1ccc2c(c1)OCCO2	-13.4	7.6	8.5	-2.5	i	-39.9	-1.3	-123.3
O=C(Nc1cnccc1C(F)(F)F)NC1CCCCC1	1.6	5.2	-3.1	-0.7	i	-13.1	9.8	1.6
COc1ccc(NC(=S)N2CCC(Cc3ccccc3)CC2)cc1OC	1.5	8.6	-5.3	-4.5	i	-39.2	3.1	-3.9
Cc1cc(F)ccc1S(=O)(=O)Nc1ccc(C(=O)N(C)Cc2ccco2)cc1	·	·	-0.4	1.2	·	21.7	·	3.2
CCOC(=O)CSc1ccc(S(=O)(=O)N(CC)CC)cc1[N+](=O)[O-]	-2.3	-1.9	4.0	4.2	i	2.5	-2.3	7.5
O=C(NCc1cccc(C(F)(F)F)c1)C1CC(c2c(Cl)cccc2Cl)=NO1 (configuration not stated)	-7.5	63.2	4.3	1.5	i	-8.0	-2.7	-17.0
O=C(Cn1c(=O)c(=O)n(Cc2ccccc2)c2ccc(Cl)cc21)Nc1cccc(F)c1	-1.5	-6.2	-0.6	-5.0	i	-15.0	-0.5	-3.9
COCCn1c(SCC(=O)c2ccc(F)cc2)nnc1C(C)C	1.4	-2.7	-18.5	-3.0	i	-6.5	0.6	-127.5
Cc1csc(NC(=O)c2ccccc2C(=O)O)n1	2.3	-17.4	0.9	4.6	i	-9.1	-8.5	-24.6
O=C(O)[C@H](Cc1ccccc1)N1C(=O)c2ccncc2C1=O	5.5	-8.4	-3.9	-1.3	i	9.2	-5.0	6.1
CCN(C(=O)CSc1nnnn1C)C1CCCCC1	·	7.9	1.8	0.1	·	-6.8	·	-0.9
O=C1C(O)=CC(=C(c2ccccc2)c2ccccc2)c2ccccc21	·	·	4.5	-2.3	·	-13.8	·	24.3
COc1ccccc1Nc1nc(N)nc(CSc2nc(C)cc(C)n2)n1	-5.2	-11.7	2.8	5.2	i	·	2.7	-107.5

Bioassay records as filed in PubChem.
